# Rce1 inh – yeast Ras-converting enzyme inhibition | Q03530 | yeast membranes, quenched prenylated peptide cleavage fluorescence | calls only | 0.27% of 290,000 active | AID 2563;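 active = fall in fluorescence gain of 50% or more versus controls, with final raw signal at or below 3038400; inconclusive = same 50% fall but final raw signal above 3038400; inactive = fall in fluorescence gain under 50%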;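 also: plate controls were neutral control wells for no effect and wells lacking membranes for full effect; tested at 10 µM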
# Target sequence (Q03530 whole entry, looked up): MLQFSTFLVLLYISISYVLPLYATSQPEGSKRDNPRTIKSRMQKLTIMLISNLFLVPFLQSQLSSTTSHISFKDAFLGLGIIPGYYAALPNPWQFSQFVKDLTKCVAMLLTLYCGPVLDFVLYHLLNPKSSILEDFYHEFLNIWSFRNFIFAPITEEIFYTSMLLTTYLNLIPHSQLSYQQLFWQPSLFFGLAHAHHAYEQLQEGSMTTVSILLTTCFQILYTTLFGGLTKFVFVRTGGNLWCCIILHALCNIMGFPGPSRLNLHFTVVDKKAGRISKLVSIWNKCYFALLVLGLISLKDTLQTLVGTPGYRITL
# UUG fidelity – yeast start codon fidelity modulation; S. cerevisiae UUG-firefly luciferase reporter, luminescence/redox ratio; activity score, % at 18.7 µM; 0.13% of 350,000 active; AID 602363;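 active = replicate mean at a twofold rise or more, about +100% in these data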;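 also: firefly luciferase made from a UUG start codon reports start codon fidelity; reporter light over untreated wells divided by growth signal over untreated wells; some hits fall short of that in this replicate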
# Env fusion inh – inhibitors of HIV Env-mediated cell fusion. 1.1% of 360,000 active. inhibition, % at 12.3 µM. AID 651610. HeLa-JRFL Env/CEM21 cell fusion, luciferase;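 active = mean replicate inhibition score of at least 50 and every replicate individually at or above 50; inconclusive = only one of the two criteria met; inactive = mean below 50 and not all replicates reaching 50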;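 also: 0% = plate neutral controls and 100% = maraviroc near 300 nM; one replicate is shown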
# MT1-MMP act inh – MT1-MMP (human) activation inhibition; P50281; GFP/RFP ratio change, % at 20 µM; AID 651647; 0.061% of 360,000 active; HT1080 RFP-PRO-GFP cells, GFP/RFP ratio fluorescence, overnight; percent of plate control window, DMSO zero;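 active = GFP/RFP ratio change of at least 30% with cell ATP level not reduced by more than half and red fluorescence within 50% of control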; also: strong numbers were not always called active
#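 Assay system: HT1080 RFP-PRO-GFP cells | Dosing: 20 µM single dose, 1% DMSO | Incubation: Cells overnight before dosing, compound overnight, 37 °C, 5% CO2 | Evaluation: GFP/RFP fluorescence ratio | Control set: DMSO-only wells and HT1080 RFP-L50D-GFP cell wells as references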
# CSC inhib – cancer stem cell inhibition | 1.1% of 300,000 active | inhibition, % at 7.5 µM | cancer stem cell-like cells viability, luminescence;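 active = mean at 75% or more and at least half the replicates too; inconclusive = mean and replicates disagree; tested in HMLE shEcad cells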;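 also: 0% = median of negative and 100% = median of positive control wells; the first replicate is given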
# eIF4H FP inh – inhibitors of RNA binding by human eIF4H; 0.94% of 290,000 active; eIF4H fluorescence polarization binding assay; Q15056; inhibition, % at 35 µM;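 active = 50% or more with normal probe brightness, or confirmed in later tests; inconclusive = above 50% with abnormal brightness, or retests that disagree; inactive = below 50% or failed in later tests; about a fifth of its hits are not listed in these tables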;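 also: calls also rest on retests at 20 µM and on dose response follow-up; 0% = protein and probe with vehicle and 100% = probe without protein; strong numbers were not always called active; many hits fall short of the cut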
# PABP FP inh – PABP-poly(A) binding inhibition; P11940; PABP-poly(A) RNA binding, fluorescence polarization; inhibition, % at 35 µM; 1% of 290,000 active; AID 2014;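 active = 50% or more with normal probe brightness, or confirmed in later tests; inconclusive = above 50% with abnormal brightness, or retests that disagree; inactive = below 50% or failed in later tests; about a fifth of its hits are not listed in these tables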;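 also: calls also rest on retests at 20 µM and on dose response follow-up; controls were probe without protein and protein plus probe with vehicle; some compounds called inactive have numbers as strong as hits; many hits fall short of the cut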
# Target sequence (P11940 whole entry, looked up): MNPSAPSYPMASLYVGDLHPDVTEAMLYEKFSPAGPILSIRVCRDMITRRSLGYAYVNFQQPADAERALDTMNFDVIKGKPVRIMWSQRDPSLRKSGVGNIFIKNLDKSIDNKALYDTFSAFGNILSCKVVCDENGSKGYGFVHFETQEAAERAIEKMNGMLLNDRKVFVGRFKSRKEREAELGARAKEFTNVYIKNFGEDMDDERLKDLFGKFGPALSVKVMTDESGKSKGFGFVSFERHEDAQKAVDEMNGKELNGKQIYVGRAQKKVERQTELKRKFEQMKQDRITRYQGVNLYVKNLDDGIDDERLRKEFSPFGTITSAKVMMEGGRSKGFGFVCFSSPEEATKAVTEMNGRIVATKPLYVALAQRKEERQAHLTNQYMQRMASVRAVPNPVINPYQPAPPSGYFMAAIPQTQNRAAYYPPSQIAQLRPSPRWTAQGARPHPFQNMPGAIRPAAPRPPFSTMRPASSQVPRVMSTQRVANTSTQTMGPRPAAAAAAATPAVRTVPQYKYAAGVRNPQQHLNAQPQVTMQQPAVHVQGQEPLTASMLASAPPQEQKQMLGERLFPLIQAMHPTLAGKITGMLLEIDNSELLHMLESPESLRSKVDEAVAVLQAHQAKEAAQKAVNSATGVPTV
# eIF4H FP inh retest – recorded beside eIF4H FP inh, whose call it bears; inhibition, %; compound at 20 µM; confirmation average;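 mean of two retest wells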
# PABP FP inh retest – recorded beside PABP FP inh, whose call it bears; inhibition, %; compound at 20 µM; confirmation repeats;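 mean of two retest wells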
# MT1-MMP act inh RFP – recorded beside MT1-MMP act inh, whose call it bears; RFP signal change, %; measured here: RFP expression control read;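 0 = vehicle wells; hits needed this value within 50% of zero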
# Starred values were filed as active, the others as inactive; i = inactive; ? = inconclusive; / = not tested or not shown.
SMILES,Rce1 inh,UUG fidelity,Env fusion inh,MT1-MMP act inh,MT1-MMP act inh RFP,CSC inhib,eIF4H FP inh,PABP FP inh,others
Nc1cc(C(=O)OCC(=O)NC(c2ccccc2)c2ccccc2)ccc1Cl,i,-10,-14,2,7,-2,-7,1,
CCN(CC)CCn1c(N)cc(=O)[nH]c1=O,/,/,-3,-1,-3,6,5,4,
COc1cc(OC)nc(NC(=S)NC(=O)c2ccccc2)n1,i,-27,-29,-1,0,-4,-4,0,
Cc1ccc(C(=O)N/N=C\c2ccc(-c3ccc(Cl)cc3)o2)cn1,i,/,-25,2,-3,31,-4,-13,
CCOC(=O)C1=CN(Cc2cccc(F)c2)S(=O)(=O)N(CC)C1c1ccc(C(F)(F)F)cc1 (stereo not given),/,-14,17,-18,-25,/,/,/,
NC(=O)c1ccccc1NC(=S)NC(=O)c1ccc(Br)o1,i,-20,-44,3,4,2,1,-10,
Clc1ccc(CSc2nc3ccncc3[nH]2)cc1,i,-75,-89,-2,-10,23,-6,4,
Cc1ccc(S(=O)(=O)Nc2ccc(C(=O)NC3CC3)cc2)cc1,i,2,20,0,1,-12,-10,-10,
O=S(=O)(NC1=NCCC1)c1cccc(NC(=S)Nc2ccc(OC(F)F)cc2)c1,/,-15,3,1,7,-4,/,/,
COCCN(CCOC)S(=O)(=O)c1ccc(C(=O)Nc2nc(-c3ccncc3)cs2)cc1,/,-13,/,4,-11,-7,-5,-4,
COC(=O)C1CCN(C(=O)CSc2nnc(-c3ccncc3)o2)CC1,i,-3,/,1,5,-11,0,28,
Cc1c(NC(=O)OCCSc2nc(N(C)C)nc(N(C)C)n2)sc(=S)n1C,i,18,8,-2,-6,4,-3,-4,
CCN(Cc1ccccc1)C1CCN(Cc2ccccc2)CC1,i,-24,/,5,3,7,-8,-17,
N#Cc1nc(-c2ccc(OCc3ccccc3)cc2)oc1NCCCn1ccnc1,i,-16,/,4,-4,88*,14,-6,
CC(C)c1ccccc1NC(=O)CNCCOc1ccccc1F,i,-17,17,-2,-1,2,36,4,
CCCC(C)NC(=O)CN1C(=O)c2cccc3cccc1c23 (stereo not given),i,1,13,0,1,7,2,-3,
CCOc1cccc(OCCOCCN2CCCC2)c1,i,-11,/,-1,2,-15,-1,1,
CCOC(=O)c1c(NC(=O)c2ccoc2C)sc(C)c1C,i,-13,-12,-1,-2,-19,-5,-7,
O=C(c1cccs1)N1CCC2(O)CCCCC2C1c1ccc(F)cc1 (stereo not given),i,/,2,2,3,6,4,-6,
Cc1ccc(NC(=O)Nc2ccccc2C(N)=O)cc1,i,-22,-11,1,4,-10,-8,-2,
Cc1cc(C)n(CCN(C)c2nc3nonc3nc2NC2CC2)n1,i,/,13,3,5,-9,-3,1,
OC(COc1ccc(Cl)c2ccccc12)CN1CCN(c2ccccn2)CC1 (stereo not given),i,-14,-21,2,2,37,-2,-20,
CCN(CC)c1ccc(NC(=O)c2cnc3ccccn3c2=O)c(C)c1,/,-8,/,-6,-19,0,-6,-6,
COc1ccccc1CN1CC(C(=O)NCc2cccc(C)n2)CCC1=O (stereo not given),i,1,1,2,5,4,-5,4,
O=C1/C(=C/c2ccc([N+](=O)[O-])cc2)CCc2ccccc21,i,/,/,/,/,11,4,5,
C/C(=N\NC(=O)C1=NNC(=O)C1C)c1cccs1 (stereo not given),i,/,-11,2,1,16,-16,46,
COc1ccc(OC)c(CCNC(=O)CCC(=O)N2CCOc3ccc(C)cc32)c1,i,3,6,3,-1,17,-8,1,
COc1ccccc1-c1sc2ccccc2c1-c1ccc(Br)nc1,/,-14,0,-2,1,32,/,/,
COc1cccc(NC(=O)CN2C(=O)C(c3ccc(C)cc3)=NC23CCCCCC3)c1,i,-12,-4,-7,-7,-5,-12,-14,
COC(=O)C1=C(C)N(C)C(=O)NC1c1c(OC)ccc2ccccc12 (stereo not given),i,18,-3,-2,-6,-7,-16,-4,
O=[N+]([O-])c1ccc(C2CC(c3ccccc3)=Nc3ccccc3S2)cc1 (stereo not given),i,-27,21,-2,-1,15,9,8,
O=C(O)c1ccc(O)c(N2C(=O)Nc3ccccc3N2O)c1,i,/,/,5,6,9,53*,6.5*,eIF4H FP inh retest=92*;PABP FP inh retest=64*
O=C(CSc1cc(Cl)ccc1Cl)Nc1ccc(N2CCOCC2)cc1,/,-17,/,-2,0,-8,/,/,
COc1ccc(NC(=O)CN(C)CC(=O)Nc2ccc(C)c(S(=O)(=O)N3CCCCC3)c2)cc1,/,-8,-3,3,-15,/,/,/,
CC12CC3(C)CC(C)(C1)CC(NC(=O)N1CCCC1)(C2)C3,i,-38,15,-7,-4,-4,-20,-2,
COc1ccc(OC)c(NC(=O)CCN2C(=O)c3cccc([N+](=O)[O-])c3C2=O)c1,i,-6,18,-5,-5,-2,12,10,
COc1ccc(S(=O)(=O)N2CCOC2CNC(=O)C(=O)NCCN2CCOCC2)cc1OC (stereo not given),i,-13,-11,-1,6,-25,-1,8,
Cc1cc(C)c(NS(=O)(=O)c2c(C)noc2C)c(C)c1,i,1,11,-1,-2,11,4,-9,
COc1ccc2nc3n(c(=O)c2c1)-c1cc2ccccc2cc1C(=O)NC3Cc1ccc(O)cc1 (stereo not given),/,-14,-9,-16,-18,/,/,/,
CC(=O)NC1C(OCc2cccc(Br)c2)OC(COC(C)=O)C(OC(C)=O)C1OC(C)=O (stereo not given),i,-4,-12,0,5,-2,0,-6,
O=C(/C=C/c1ccco1)NCC1OCCc2ccccc21 (stereo not given),i,-1,31,-5,2,111*,87*,41*,eIF4H FP inh retest=80*;PABP FP inh retest=78*
CC(C)CCOc1ccc(C2=NNC(=O)CC2)cc1,i,/,-5,5,1,-6,0,-1,
N[C@@H](C(=O)N[C@@H]1C(=O)N2C(C(=O)O)=C(Cl)CS[C@H]12)c1ccccc1,i,-21,-2,-6,4,-19,4,2,
Cc1ccc(S(=O)(=O)N2CC3(O)CN(C(=O)OC(C)C)N(C(=O)OC(C)C)CC3(OC(=O)NC3CCCC3)C2)cc1 (stereo not given),/,-6,75*,-2,-2,/,/,/,
CCS(=O)(=O)n1nc(-c2ccccc2)cc1N,i,-18,-17,1,5,-3,-15,9,
CCCC(=O)Nc1ccc2c(c1)nc(CCN1CCC(C)CC1)n2C,/,-3,30,1,1,/,/,/,
O=C(Nc1cccc(F)c1)Nc1nnc([C@@H]2C[C@H](O)[C@@H](CO)O2)s1,/,-16,33,0,5,/,/,/,
Cc1cccc(-n2cc(CNCCN3CCOC3=O)c(-c3cccc(F)c3)n2)c1,i,3,11,3,1,-3,-4,-4,
O=C(OCc1nnn(Cc2ccccc2)c1-c1c(COC(=O)c2ccccc2)nnn1Cc1ccccc1)c1ccccc1,/,-10,/,-2,-12,2,-2,13,
COc1cccc(-c2nc(N3CCN(c4ccccc4)CC3)c3ccccc3n2)c1O,i,-8,/,-7,-4,-24,-12,-10,
Cc1cc(=O)n2c3ccccc3n(CC(O)CN3CCC(C)CC3)c2c1C#N (stereo not given),i,/,-10,-4,0,/,-4,16,
Cc1ccc(C)c(CN2C(=O)C3(OCCCO3)c3ccccc32)c1,i,14,-17,5,2,18,4,4,
CCCCOc1ccc(C2NC(=O)NC(C)=C2C(C)=O)cc1OCC (stereo not given),i,/,-13,1,-7,/,-6,0,
CCOC(=O)[C@H]1[C@H]2COc3ccc(Cl)cc3[C@@H]2N2C(=O)c3cc(Br)ccc3NC(=O)[C@@]12C,/,-3,35,-13,-5,17,/,/,
O=C(O)c1ccc(-c2ccc(/C=C3\NC(=O)N(Cc4ccc(Cl)cc4)C3=O)o2)cc1Cl,i,3,5,-7,1,/,86,71*,eIF4H FP inh retest=36;PABP FP inh retest=112*
CC(Oc1ccc(Cl)cc1)C(=O)N/N=C/c1ccsc1 (stereo not given),i,/,13,-1,6,-6,14,17,
COCCOc1cc2ncnc(N3CCC(C(=O)O)CC3)c2cc1OCCOC,i,/,2,2,4,8,-8,3,
NCCCC[C@H]1CNC(=S)N1CCCCC1CCCCC1,i,-17,1,4,-9,-4,-5,-8,
C=CCNC(=O)c1cnn(-c2ccccc2)c1-c1ccccc1,i,15,-5,2,0,2,1,-7,
O=C(NCc1ccc2c(c1)OCO2)c1ccc2c(c1)S(=O)(=O)c1ccccc1C2=O,i,6,-25,-1,0,-6,/,/,

# Compounds listed so far containing a Cl atom, in the order listed:
SMILES,Rce1 inh,UUG fidelity,Env fusion inh,MT1-MMP act inh,MT1-MMP act inh RFP,CSC inhib,eIF4H FP inh,PABP FP inh,others
Nc1cc(C(=O)OCC(=O)NC(c2ccccc2)c2ccccc2)ccc1Cl,i,-10,-14,2,7,-2,-7,1,
Cc1ccc(C(=O)N/N=C\c2ccc(-c3ccc(Cl)cc3)o2)cn1,i,/,-25,2,-3,31,-4,-13,
Clc1ccc(CSc2nc3ccncc3[nH]2)cc1,i,-75,-89,-2,-10,23,-6,4,
OC(COc1ccc(Cl)c2ccccc12)CN1CCN(c2ccccn2)CC1 (stereo not given),i,-14,-21,2,2,37,-2,-20,
O=C(CSc1cc(Cl)ccc1Cl)Nc1ccc(N2CCOCC2)cc1,/,-17,/,-2,0,-8,/,/,
N[C@@H](C(=O)N[C@@H]1C(=O)N2C(C(=O)O)=C(Cl)CS[C@H]12)c1ccccc1,i,-21,-2,-6,4,-19,4,2,
CCOC(=O)[C@H]1[C@H]2COc3ccc(Cl)cc3[C@@H]2N2C(=O)c3cc(Br)ccc3NC(=O)[C@@]12C,/,-3,35,-13,-5,17,/,/,
O=C(O)c1ccc(-c2ccc(/C=C3\NC(=O)N(Cc4ccc(Cl)cc4)C3=O)o2)cc1Cl,i,3,5,-7,1,/,86,71*,eIF4H FP inh retest=36;PABP FP inh retest=112*
CC(Oc1ccc(Cl)cc1)C(=O)N/N=C/c1ccsc1 (stereo not given),i,/,13,-1,6,-6,14,17,

# Next results:
SMILES,Rce1 inh,UUG fidelity,Env fusion inh,MT1-MMP act inh,MT1-MMP act inh RFP,CSC inhib,eIF4H FP inh,PABP FP inh,others
CCOC(=O)N1CCN(C(=O)c2ccc(Cn3c(=S)[nH]c4ccc(Br)cc4c3=O)cc2)CC1,i,-3,32,1,-29,-11,-8,0,
COc1ccc(OC)c(C=C2CCc3ccccc3C2=O)c1,/,-13,4,5,-5,/,/,/,
NC(=O)CC(NC(=O)c1cccc(Br)c1)c1ccc(NC2CCCCCCCCCCC2)c([N+](=O)[O-])c1 (stereo not given),i,2,20,-1,-4,-8,1,12,
Cc1cccnc1NC(=O)CCCc1c[nH]c2ccccc12,i,4,-2,-3,1,-10,-5,3,
CC(=O)Oc1ccc(/C=N/NC(=O)c2ccc(N(C)S(=O)(=O)c3ccccc3)cc2)cc1,i,-12,-6,1,1,-2,7,-8,
C[n+]1cccc2cccc([O-])c21,/,/,-10,1,2,/,99,47*,eIF4H FP inh retest=40;PABP FP inh retest=88*
O=C(O)C1CC(O)CN1c1nc(Cl)ccc1[N+](=O)[O-] (stereo not given),i,/,3,-11,-1,-8,?,?,

# 2 neighbouring entries already listed, for reference:
SMILES,Rce1 inh,UUG fidelity,Env fusion inh,MT1-MMP act inh,MT1-MMP act inh RFP,CSC inhib,eIF4H FP inh,PABP FP inh,others
C[n+]1cccc2cccc([O-])c21,/,/,-10,1,2,/,99,47*,eIF4H FP inh retest=40;PABP FP inh retest=88*
O=C(O)C1CC(O)CN1c1nc(Cl)ccc1[N+](=O)[O-] (stereo not given),i,/,3,-11,-1,-8,?,?,
